# From PubChem BioAssay
# ALR inh = human ALR oxidase inhibition via reduced H2O2 | P55789 | inhibition, % (concentration not given with the values) | hit rate 3.8% among 290,000 | purified ALR, DTT oxidation, H2O2 HRP-luminol luminescence;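 active = mean and each replicate at 75% or more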;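 also: stock transfer was 7.5 nL into about 7.5 µL; 0% = neutral wells and 100% = wells with inactivated enzyme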
# Target sequence (P55789 whole entry, looked up): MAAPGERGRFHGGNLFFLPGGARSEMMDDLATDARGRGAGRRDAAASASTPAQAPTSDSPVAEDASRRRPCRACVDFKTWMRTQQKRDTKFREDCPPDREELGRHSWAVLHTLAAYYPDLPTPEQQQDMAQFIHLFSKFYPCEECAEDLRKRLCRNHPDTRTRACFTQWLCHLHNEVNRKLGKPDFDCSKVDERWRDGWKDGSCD
# HNF4A DNA FP = change in binding of human HNF4 alpha to DNA | P41235 | HNF4a-FITC DNA binding, fluorescence polarization, 1 h | activity change, % at 10 µM | hit rate 0.3% among 360,000 | AID 1224865; in the data active = activity change above about 30%, passing the limit was not always enough;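 also: controls were the assay level and a saturating level of protein; the project sought stronger binding though the title names inhibitors; some compounds called inactive have numbers as strong as hits; positive values seem to mean higher polarization but the record does not say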
# Target sequence (P41235 whole entry, looked up): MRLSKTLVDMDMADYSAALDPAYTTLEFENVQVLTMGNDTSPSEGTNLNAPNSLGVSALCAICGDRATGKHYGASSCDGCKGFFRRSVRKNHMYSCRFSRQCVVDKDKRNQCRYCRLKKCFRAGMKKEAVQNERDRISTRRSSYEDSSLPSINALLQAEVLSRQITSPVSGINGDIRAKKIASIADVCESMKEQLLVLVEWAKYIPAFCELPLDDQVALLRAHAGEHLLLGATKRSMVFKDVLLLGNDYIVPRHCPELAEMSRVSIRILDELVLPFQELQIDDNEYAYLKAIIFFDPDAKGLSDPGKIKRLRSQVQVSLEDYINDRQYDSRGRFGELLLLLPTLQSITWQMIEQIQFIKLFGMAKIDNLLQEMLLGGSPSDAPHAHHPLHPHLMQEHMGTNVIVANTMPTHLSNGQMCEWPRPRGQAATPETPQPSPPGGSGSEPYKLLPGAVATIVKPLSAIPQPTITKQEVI
# B2AR ag = agonists of human beta-2 adrenergic receptor inducing internalization; P07550; Am2.2-beta2AR cells, FAP receptor internalization, flow cytometry; reference of the scale not given here; response, % (no concentration beside the values); hit rate 0.43% among 340,000; AID 504454;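 active = response above a set limit, near 3 SD of response in nonfluorescent compounds, cut at about 42% in these data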;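 also: stock transfer was 100 nL into about 11 µL; a reference agonist was the positive control; negative values mostly stem from fluorescent compounds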
# FGF22 binding = FGF22 (human) thermal shift binding; recombinant FGF22 thermal shift, SYPRO orange fluorescence; percent of sucrose octasulfate shift, DMSO zero; calls only at 9.99 µM; hit rate 1.5% among 340,000; AID 651658;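 active = melting point raised past a set limit in the mean and every replicate; three in four hits are not shown here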
# Target sequence (Q9HCT0 whole entry, looked up): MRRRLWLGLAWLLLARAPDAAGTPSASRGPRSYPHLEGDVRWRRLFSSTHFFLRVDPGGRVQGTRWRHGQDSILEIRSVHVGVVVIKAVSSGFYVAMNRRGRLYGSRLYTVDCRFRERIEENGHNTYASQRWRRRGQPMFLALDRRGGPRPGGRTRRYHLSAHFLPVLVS
# Ecoli growth = inhibitors of Escherichia coli growth; OD600, 23 h; active compounds read low; OD600 absorbance (test concentration not listed); hit rate 0.21% among 330,000; AID 1053175;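 active = OD600 absorbance below the run mean of sample wells minus 3.6 SD, in any replicate, cut at about 0.56 in these data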;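 also: stock transfer was 300 nL into about 60 µL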
# UCH37 DUB inh = blocks the human deubiquitinase UCH37; inhibition, % (test concentration not listed); purified proteasome/UCH37, Ub-AMC cleavage fluorescence; AID 588478; hit rate 0.33% among 330,000; Q9Y5K5;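 active = mean of two replicates above 20%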;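 also: 0% = compound-free wells with enzyme and 100% = wells lacking proteasome; stock transfer was 100 nL into about 20 µL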
#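 System: Proteasome-associated human UCH37 deubiquitinase; Input: 0.15 nM proteasome in added enzyme buffer; Also added: Ub-AMC substrate from 1 µM stock; Incubation: 30 min compound-proteasome preincubation then 25 min substrate reaction, room temperature; Detection: fluorescence, ex 355 nm, em 460 nm; Read-out: % inhibition of Ub-AMC cleavage fluorescence; Benchmarks: no-proteasome and no-compound wells.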
# LANA-H2B inh = blocks KSHV LANA binding to histone H2A/H2B; cell-free LANA-H2A/H2B peptide, fluorescence polarization; inhibition, % (concentration not given with the values); hit rate 0.6% among 320,000; in the data active = inhibition mostly above about 10%, no sharp cut-off; inactive = mostly below about 6.7%;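 also: stock transfer was 7.5 nL into about 10 µL; 0% = median of vehicle wells and 100% = median of positive control wells; one replicate is shown; the record names a cut of 25% in any replicate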
# Starred values were filed as active, the others as inactive; i = inactive; / = not tested or not shown. Only part of the results is shown; rates above refer to the full screens.
Structure	ALR inh	HNF4A DNA FP	B2AR ag	FGF22 binding	Ecoli growth	UCH37 DUB inh	LANA-H2B inh
COc1ccc(C)cc1NC(=O)CSCc1cc(=O)n2c(C)csc2n1	/	-3.6	-1	i	0.7	-1.5	/
Cc1ccc(/C=N/N2CCN(Cc3ccccc3)CC2)s1	13	-3.6	-12	/	/	/	0.1
CCCCN(C(=O)c1c(CC)noc1C)c1c(N)n(CCCC)c(=O)[nH]c1=O	-3	-0.9	0	i	0.62	-4.8	4.5
CC(NC(=O)C1CCCC1)c1ccc(Br)cc1 (centres undefined)	/	-1.8	1	i	0.67	3.6	-1.0
CCOC(=O)c1c(C)[nH]c(C)c1S(=O)(=O)NCCc1sccc1C	-2	-2.2	-1	i	0.7	2.1	1.1
C[C@@H](NC(=O)c1nc[nH]c1C(=O)N[C@@H](CCCCNC(=O)OC(C)(C)C)C(=O)OC(C)(C)C)c1ccccc1	-3	2.7	-4	i	/	4.4	6.6
O=C(c1cc2cc(Cl)ccc2[nH]1)N1CCN(c2ccccn2)CC1	-10	-2.9	6	i	0.64	1.3	2.4
O=C(COC(=O)c1cccc(Cl)c1)Nc1cc(Cl)ccc1Oc1ccccc1	-5	-0.4	-3	i	0.68	2.2	2.2
COCCNC(=O)c1cc2c(s1)-c1ccc(Cl)cc1SC2	8	4.6	-5	i	0.68	-173	-5.2
N#C/C(=C/c1cc(Cl)c(O)c(Cl)c1)C(=O)N1CCCCC1	37	3.7	2	i	0.65	8.5	-0.1
NS(=O)(=O)c1ccc(CNC(=O)c2scc3c2CCCC3)cc1	-10	-3.3	-6	i	0.74	1.6	-0.2
COc1cc(C(=O)NCCCNc2nc3cc(C)cc(C)c3cc2C#N)cc(OC)c1OC	-3	1.4	19	/	0.68	-122	1.3
O=C(O)CCC(=O)N1CCc2c([nH]c3ccccc23)C1C(F)(F)F (centres undefined)	/	1.9	-15	i	0.68	1.4	6.9
CCCCNC(=O)C1CCN(c2nc(OC)nc(OC)n2)CC1	-3	0.5	1	/	0.69	0.5	2.8
COc1ccc(NC(=O)N2c3ccccc3C(C)=CC2(C)C)cc1	9	-4.2	0	i	0.7	-4.8	2.0
CCC1CCc2c(sc(NC(=O)CSc3nc(-c4ccco4)cc(C(F)(F)F)n3)c2C#N)C1 (centres undefined)	-6	1.4	10	i	0.72	2.8	6.7
COCCCNC(=S)NC(=O)c1ccccc1	-6	-2.8	-4	/	0.71	1.0	2.1
CCOc1cc(S(=O)(=O)NCc2ccccn2)c(C)cc1C	-12	/	/	/	0.67	4.8	7.1
Cc1ccc(S(=O)(=O)N2CCN(C(=O)CCC(=O)NCc3ccc(F)cc3)CC2)cc1	-2	1.9	4	/	0.69	2.3	4.7
Cc1csc2nc(CSc3nncn3-c3ccccc3)c(Br)n12	-5	-1.4	-4	/	0.71	-4.3	0.5
CCOC(=O)NC(NC(=O)OCC)C(=O)c1ccc(F)cc1	39	-1.1	-1	/	0.69	-1.2	1.5
CC(C)OCCCn1c(=S)[nH]c2ncccc2c1=O	0	1.1	2	/	0.65	4.9	-2.6
O=C(Nc1nnc(SCc2ccc(Cl)cc2)s1)c1cnccn1	0	1.4	-4	i	0.69	3.4	-0.5
Cc1nc2sc3c(O)cc(=O)[nH]c3c2c(C)c1C	0	-1.7	2	/	0.78	-15	-2.0
CCS(=O)(=O)N1Cc2ccccc2CC1C(=O)N1CCN(c2ccccc2)CC1 (centres undefined)	98*	0.4	3	/	0.72	0.6	-5.7
Cc1ccc(NC(=O)COC(=O)c2cc(Cl)ccc2[N+](=O)[O-])cc1	/	-2.6	0	i	0.64	1.5	0.6
CCOc1ccc(Br)cc1S(=O)(=O)Nc1cccc(S(=O)(=O)N2CCOCC2)c1	/	-2.2	-10	i	/	/	/
O=C(O)c1ccccc1C(=O)c1ccc(Oc2ccccc2)cc1	1	-2.3	-37	i	/	/	0.5
COC(=O)[C@]1(Cc2ccccc2)N[C@H](CN(C)C(=O)NC(C)C)[C@@H]2C(=O)N(Cc3ccccc3)C(=O)[C@@H]21	-2	-2.8	9	i	0.69	2.3	-228
COc1ccc(Cc2nnc(NC(=O)C(C)(C)C)s2)cc1	-2	-0.3	-3	i	0.69	1.6	1.9

# 2 entries drawn at random from those above:
Structure	ALR inh	HNF4A DNA FP	B2AR ag	FGF22 binding	Ecoli growth	UCH37 DUB inh	LANA-H2B inh
Cc1ccc(NC(=O)COC(=O)c2cc(Cl)ccc2[N+](=O)[O-])cc1	/	-2.6	0	i	0.64	1.5	0.6
O=C(COC(=O)c1cccc(Cl)c1)Nc1cc(Cl)ccc1Oc1ccccc1	-5	-0.4	-3	i	0.68	2.2	2.2

# Continuation.
Structure	ALR inh	HNF4A DNA FP	B2AR ag	FGF22 binding	Ecoli growth	UCH37 DUB inh	LANA-H2B inh
CCCCCc1ccc(OCCCC[n+]2ccccc2)c(CCCCC)c1	-18	3.6	12	/	0.59	9.5	11
COC(=O)C1CCN(C(=O)NC2CCCCC2)CC1	-5	0.6	2	i	0.69	-0.7	0.4
O=C(N/N=C/c1ccc([N+](=O)[O-])o1)c1ccccc1NS(=O)(=O)c1cccs1	-23	-8.0	14	i	/	/	2.6
C#CCSc1ncc(S(=O)(=O)c2ccccc2)c(=O)[nH]1	/	-2.4	1	i	0.67	0.4	-0.9
Cc1ccccc1C(=O)O/N=C1\CCS(=O)(=O)c2sccc21	-13	-9.6	-1	/	/	/	1.0
Cc1ccc(/C=C(\NC(=O)c2ccccc2)C(=O)NCC2CCCO2)o1 (centres undefined)	12	2.5	3	i	0.72	8.7	-3.0
C=C(C)c1cccc(C(C)(C)NC(=O)N2CCOCC2)c1	-11	-0.9	6	/	0.74	4.3	-0.8
Cc1ccc(N2C(=O)C3CCC(C)(C2=O)C3(C)C)cc1C (centres undefined)	29	-1.6	-7	/	0.72	0.1	4.6
CCCCN(CCCNC(=O)C1CCN(S(=O)(=O)N2CCOCC2)CC1)Cc1ccccc1	/	-2.8	2	/	0.75	-1.8	/
Cc1ccc(C(=O)CCC(=O)NCc2ccccc2)cc1	-8	1.0	1	i	0.69	1.7	5.2
CCOc1ccc(NC(=O)C2CCN(S(=O)(=O)CC)CC2)cc1	-4	0.3	-6	i	0.72	3.6	7.2
O=C(CSc1nnnn1C1CCCCC1)NCc1ccccc1	-9	5.4	-5	/	0.66	-0.7	4.6
O=C(Cc1ccc(NC2=NC3CS(=O)(=O)CC3S2)cc1)NCc1ccc(Cl)cc1 (centres undefined)	3	-3.1	15	i	0.77	4.3	-0.3
Cc1ccc(NC(=O)C(C)Sc2n[nH]c(CNc3ccccc3)n2)cc1 (centres undefined)	12	7.3	-4	i	0.69	4.6	-3.3
N#CC(c1ccc(O)cc1)N1CCOCC1 (centres undefined)	-9	0.5	2	i	0.66	2.2	13
CCOc1ccc(-c2nc(N)ncc2Oc2ccc(OC)cc2)c(O)c1	-14	-2.3	7	i	0.7	3.9	-2.8
CC(NC(=O)Cn1cc([N+](=O)[O-])cn1)c1ccc(C(C)(C)C)cc1 (centres undefined)	0	-0.3	2	i	0.67	5.2	6.5
COc1ccc(-c2oc(NC(=O)CCl)c(C#N)c2-c2ccc(OC)cc2)cc1	28	4.5	16	/	0.68	4.5	-6.6
C/C(=N\NC(=O)c1ccoc1C)c1ccccc1O	6	1.6	-2	i	/	/	-1.9
NS(=O)(=O)c1ccc(NC(=O)Cc2c(F)cccc2Cl)cc1	3	3.0	8	i	0.67	1.8	4.5
O=c1c2ccccc2sn1-c1ccccc1	59	3.6	-20	/	0.61	5.4	-4.1
Cn1c(NC(=O)COc2ccccc2)cc(=O)n(C)c1=O	99*	3.2	-19	i	0.66	1.4	-1.4
NC(=O)C1CCN(c2cc(N3CCOCC3)ccc2[N+](=O)[O-])CC1	-2	2.3	4	i	0.65	11	-2.9
N#CCC(=O)Nn1c(=S)[nH]c2ccccc2c1=O	12	0.1	0	i	0.71	-1.0	3.2
C/C(CC(=O)Nc1ccccc1)=N\NC(=O)COc1ccc(C)cc1Br	-2	2.3	-4	i	/	/	0.7
Cc1ccc(SC(C)c2nc(-c3ccncc3)no2)cc1 (centres undefined)	3	-3.4	22	/	0.69	3.6	-1.9
CCOc1ccc(Cl)cc1S(=O)(=O)N1CCC(C(=O)NCc2ccncc2)CC1	-1	2.8	-3	i	0.67	4.8	-7.5
Cc1nc(/N=C\N(C)C)sc1C(=O)Nc1ccccc1	-3	0.9	-16	/	/	/	5.1
CCOc1ccc(NC(c2ccccc2)P(=O)(OC)OC)cc1 (centres undefined)	89*	-1.1	3	i	0.68	2.3	6.6
O=c1c2[nH]c3ccc(F)cc3c2ncn1CCC1=CCCCC1	-1	3.9	-8	i	0.77	2.7	3.6
FC(F)(F)c1ccccc1-n1c(-c2ccco2)n[nH]c1=S	46	-3.7	8	i	/	/	-1.9
C=CCC[C@H](Cc1ccc(F)cc1)C(=O)OC[C@@H](NC(=O)[C@H](CC=C)CC(=O)NCCO)C(C)(C)C	-11	-0.8	-3	i	/	1.1	-2.9
CC(Sc1nnc(-c2ccco2)n1C)C(=O)Nc1ccc(N2CCOCC2)cc1 (centres undefined)	/	1.3	-9	i	0.66	-1.0	/
Cc1ccc(C)c(NC(=O)CN(C)C(=O)c2ccc(-c3ccc(Cl)cc3)o2)c1	29	-1.3	-5	i	0.63	-9.1	0.8
CCOc1ccc(S(=O)(=O)N2CCN(c3ccccc3)CC2)c2cccnc12	-2	0.9	-6	/	0.72	-0.8	1.1
Nc1nc2ccccc2n1CCOc1ccc(F)cc1	-5	-0.1	3	i	0.62	0.6	-6.3
O=C(O)CCC(=O)Nc1cccc2cccnc12	-27	1.8	-4	i	0.66	4.0	-1.3
O=C1CCN(Cc2ccccc2)CCN1[C@H](CO)Cc1ccccc1	-1	0.6	2	/	/	0.6	1.6
Cc1ccc(-c2c(C(=O)N/N=C/c3ccc(C)o3)nnn2-c2nonc2N)cc1	11	-0.1	3	i	/	/	0.9
O=C(NCc1cccnc1)c1ccccc1NS(=O)(=O)c1ccc(Br)cc1	/	-2.8	-6	i	0.67	1.6	4.0
CCOC(=O)C(NC(C)=O)(Nc1ccc(S(N)(=O)=O)cc1)C(F)(F)F (centres undefined)	-10	2.6	-7	/	0.72	3.1	-7.7
CCOC(=O)CON1C(=O)c2ccccc2C1=O	0	3.0	-86	/	0.66	4.7	-3.6
CCOc1ccccc1C(=O)Nc1cc(Cl)ccc1O	-6	2.3	7	/	0.67	2.9	-5.4
Cn1c(=O)c(C(=O)NCc2ccc(F)cc2)c(O)c2ccccc21	-13	-1.1	-2	i	0.74	1.3	-0.3
Cc1cc(NC(=O)COc2ccccc2)ccc1Cl	-3	-3.7	11	i	0.66	3.1	-5.1
Cc1ccc(C(C)NC(=O)c2ccc3c(c2)OCCO3)cc1C (centres undefined)	-6	4.1	-4	i	0.67	5.9	0.0
c1ccc(CNc2c3c(nc4ncnn24)CCCC3)nc1	-27	1.1	-1	/	0.68	4.7	0.3
Cc1ccc(NC(=O)C2(S(=O)(=O)c3ccc(Cl)cc3)CC2)cc1	3	3.8	-4	i	0.69	3.1	-2.2
O=C(OC1CCCCC1=O)c1cccc(S(=O)(=O)N2CCCCC2)c1 (centres undefined)	/	-0.1	-1	i	0.68	6.0	/
CCc1ccccc1NC1=NCC(=O)N1C1CCCCC1	0	2.5	-6	/	0.69	-1.5	3.9
Cc1ccc(S(=O)(=O)NCC(=O)N2CCOCCOCCOCC2)cc1	-6	2.6	-3	i	0.69	5.7	4.1
